Bioassay records as filed in PubChem.
HSD17B inh = HSD17B dehydrogenase inhibition; 7.6% of 75,000 active; Potency, µM (doses to about 57.1 µM), without a hit: at the highest dose activity change, negative = inhibition, usual class: inhibitors; recombinant HSD17B10, NADH fluorescence kinetic; many of its hits are not listed in these tables; Q99714; active = well fitted inhibition curve with a large enough effect; inconclusive = small, poorly fitted or top-dose-only effect; inactive = no such curve, though single readings can be large or run the other way;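 also: the protocol describes HADH2 (HSD17B10) and not the HSD17B4 of the title; nearly all actives have a fitted effect of over 70% in size; most hits overshoot -100% by far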
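His-tagged E. coli-expressed HADH2 at 20 nM in 100 mM Tris-HCl pH 9.0 with 0.01 % Tween-20, preincubated 15 min with compound at room temperature. Reaction with 1 mM NAD+ and 90 uM beta-hydroxybutyryl coenzyme A; NADH fluorescence (360/450 nm) read kinetically over 4 min, last minus first point.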
* = called active by the depositor; ? = inconclusive; & = joins results of further samples; [ ] = dose if it differs, or a comment. % is scaled to controls: 0 for no effect and ±100 for the full control effect; potency is read from the fitted curve at half-maximal effect. Only part of the results is shown; count on the stated rates, not on these rows.

COc1cccc(OCC(=O)N2CCN(C)CC2)c1
- HSD17B inh: 4.3%

O=S(=O)(Nc1ccc(-c2nc3ccccc3o2)cc1)c1ccccc1
- HSD17B inh: 31.6µM*

O=C(O)C(Oc1nc(=S)[nH]c(=S)[nH]1)(c1ccc(Cl)cc1)c1ccc(Cl)cc1
- HSD17B inh: -0.2%[11.4 µM]

O=C(NCC(c1cccnc1)N1CCN(c2ccccc2F)CC1)Oc1ccccc1 (stereo not drawn)
- HSD17B inh: -5.2%

CC(C)[C@]1(O)[C@@H](OC(=O)c2ccc[nH]2)[C@]2(O)[C@@]3(C)C[C@@]4(O)O[C@@]5([C@H](O)[C@@H](C)CC[C@]35O)[C@]2(O)[C@]41C
- HSD17B inh: 8.5%[11.4 µM]

CN1C[C@H](CO)C=C2c3cccc4[nH]cc(c34)C[C@@H]21
- HSD17B inh: 12.6µM*

c1nc(N2CC2)c2cnn([C@@H]3CCCCO3)c2n1
- HSD17B inh: -0.6%[11.4 µM]

O=C(COc1ccc(Br)cc1)N1CCN(C2CCCC2)CC1
- HSD17B inh: -3.8%

Oc1cc(Cl)c(Cl)cc1Cl
- HSD17B inh: -2.8%

OCCCBr
- HSD17B inh: -1.9%

O=[N+]([O-])c1ccc(O)c([N+](=O)[O-])c1
- HSD17B inh: -5.9%

C=CCOC(=O)C1=C(C)OC(N)=C(C(=O)OCC)C12C(=O)N(CC(N)=O)c1ccccc12 (stereo not drawn)
- HSD17B inh: -5.3%

CCOC(=O)c1ncn2c1CN(C)C(=O)c1cc(N=[N+]=[N-])ccc1-2
- HSD17B inh: -6.4%

Cc1cc(OCC(=O)OC(C)C)c2c3c(c(=O)oc2c1)CCCC3
- HSD17B inh: 31.6µM*

COC1C(O)C(OC2CC[C@]3(C=O)C4C(OC(C)=O)C[C@@]5(C)C(C6=CC(=O)OC6)CC[C@]5(O)C4CC[C@]3(O)C2)OC(C)C1OC(C)=O (stereo partly drawn)
- HSD17B inh: 2.8%

COc1cc2c3cc1Oc1c(OC)c(OC)cc4c1[C@@H](Cc1ccc(O)c(c1)Oc1ccc(cc1)C[C@@H]3N(C)CC2)N(C)CC4
- HSD17B inh: 31.6µM*

Cc1ccc2c(c1)C1CN(C)CCC1N2C(=O)c1ccc(Br)o1 (stereo not drawn)
- HSD17B inh: -4.5%

O=C(NCNC(=O)N[C@H]1C(=O)NC(=O)N1CO)N[C@H]1C(=O)NC(=O)N1CO
- HSD17B inh: 1.9%[25.6 µM]

O=c1[nH]c(=O)n(C2CCCCCC2)c(O)c1C=NCCCN1CCOCC1
- HSD17B inh: 6.9%

CCCCn1c(O)c(C(C)=NCCN2CCCCC2)c(=O)[nH]c1=O
- HSD17B inh: -3.9%

CC(=O)Nc1ccc(OC(=O)N(C)c2ccccc2)cc1
- HSD17B inh: 5.0%

C[C@]1(C(=O)O)[C@@H]2CC[C@@H](O2)[C@@]1(C)C(=O)O
- HSD17B inh: -1.7%

Cc1ccc(Cn2c(C)c3cnn(CC(=O)N4CCC5(CC4)OCCO5)c(=O)c3c2C)cc1
- HSD17B inh: 0.2%

CSc1nc(NC(C)C)nc(NC(C)C)n1
- HSD17B inh: -0.9%

O=C(Oc1ccccc1)N1CCC2(CCN(Cc3ccncc3)CC2)CC1
- HSD17B inh: 0.3%

COc1cc2c(cc1OC)-c1c(OC)c(OC)c(CO)c3c1C(C2)N(C)CC3 (stereo not drawn)
- HSD17B inh: 31.6µM*

CN1CCN(C(=O)O[C@@H]2c3nccnc3C(=O)N2c2ccc(Cl)cn2)CC1
- HSD17B inh: 4.5%

Cc1ccc(-n2c(O)c(C=Nc3ccccc3N)c(=O)[nH]c2=O)cc1C
- HSD17B inh: -18.3%

COC(=O)[C@@]1(Cc2ccccc2)[C@H]2c3cc(C(=O)N(C)C)[nH]c3C[C@H]2CN1C(=O)c1ccccc1
- HSD17B inh: -4.4%

Nc1ncn[nH]1
- HSD17B inh: 5.8%

Cc1ccc2c(c1)C1CN(C)CCC1N2C(=O)Cn1cnc2c1c(=O)n(C)c(=O)n2C (stereo not drawn)
- HSD17B inh: 7.4%

CN(C)c1ccc(CN2CC=C(c3ccc(F)cc3)CC2)cc1
- HSD17B inh: -6.8%

CO[C@@H]([CH2][Hg])CN1C(=O)c2ccccc2S1(=O)=O.Cn1c(=O)c2nc[nH]c2n(C)c1=O
- HSD17B inh: 1.58µM*

ClC1=C(Cl)C2(Cl)C3C4C=CC(C4)C3C1(Cl)C2(Cl)Cl (stereo not drawn)
- HSD17B inh: 4.1%

CNNC
- HSD17B inh: -4.3%

C[C@@H](N)Cc1cnc[nH]1
- HSD17B inh: -1.2%

O=C(CCc1nc(-c2ccccc2F)no1)N1CCC2(CC1)OCCO2
- HSD17B inh: 2.6%

Cc1nn(C2CCOC(C)(C)C2)c2c1C(c1ccc3c(c1)OCO3)SCC(=O)N2 (stereo not drawn)
- HSD17B inh: -4.8%

NC(=O)c1ccc(OC[C@H](O)CN2CC=C(c3ccc(F)cc3)CC2)cc1
- HSD17B inh: -5.7%

c1ccc(C2CC3CC4(CCCC4)N2O3)cc1 (stereo not drawn)
- HSD17B inh: 2.7%

CS(=O)(=O)O[C@H]1CN2CCC1CC2
- HSD17B inh: 6.4%[11.4 µM]

CC(=O)OC1C2C(OC(=O)Cc3ccccc3)C(C)CC2(OC(C)=O)C(=O)/C(C)=C/C2C(CC[C@@]13CO3)C2(C)C (stereo partly drawn)
- HSD17B inh: 8.5%

C=C(Cl)CSC(=S)N(CC)CC
- HSD17B inh: -1.6%

COc1ccccc1-n1c(O)c(C=NCc2ccc3c(c2)OCO3)c(=O)[nH]c1=O
- HSD17B inh: 4.4%

CC1(C)CC2(CCO1)NCCN1C(=O)CSC12 (stereo not drawn)
- HSD17B inh: -1.4%

COc1ccccc1CN1CCCCC1c1cccnc1 (stereo not drawn)
- HSD17B inh: 2.3%

NCC[C@H](O)C(=O)N[C@H]1C[C@@H](N)[C@@H](O[C@H]2O[C@@H](CN)[C@@H](O)[C@@H](O)[C@@H]2N)[C@@H](O[C@H]2O[C@@H](CO)[C@@H](O)[C@@H]2O)[C@@H]1O
- HSD17B inh: -1.9%[25.6 µM]

Cc1nc2cc(C(F)(F)F)ccc2n1C1CCN(Cc2nnnn2Cc2cccs2)CC1
- HSD17B inh: -1.3%

CCCCN(CC)c1c([N+](=O)[O-])cc(C(F)(F)F)cc1[N+](=O)[O-]
- HSD17B inh: 5.3%

CN1CCN(CC(=O)Nc2ccc(Cl)cc2C(=O)c2ccccc2)CC1
- HSD17B inh: 0.1%

Further structures
smiles	HSD17B inh
CCc1ccc(OCCCN=C(C)c2c(O)n(C)c(=O)n(C)c2=O)cc1	-14.2%
CCOc1cccc(C2NCc3ccccc3-n3cccc32)c1O (stereo not drawn)	3.3%
O=c1[nH]c(=O)n(Cc2ccccc2)c(O)c1C=NCCCO	1.6%
CC(C)CCNC(=O)c1c(N)n(CC2CCCO2)c2nc3ccccc3nc12 (stereo not drawn)	?
CCCCP(=O)(O)c1ccccc1	5.2%
O=C(C1CC(=O)N(C2CCCCC2)C1)N1CCC2(CC1)OCCO2 (stereo not drawn)	9.4%
O=C(c1cc(-c2cccnc2)nc2ccc(Cl)cc12)N1CCC2(CC1)OCCO2	-10.3%
O=C(Cc1ccccc1)OCn1nnc2ccccc2c1=O	3.8%
c1ccc2oc(N3CCNCC3)nc2c1	3.8%
Cc1cnc[nH]1	4.1%
CC(C)n1cc(C(=O)N(CC(=O)NC2CCCC2)Cc2ccccc2)cn1	7.9%
CN1CCC(N(C)c2nc(-c3ccccc3)nc3ccccc23)CC1	3.6%
CC(C)CNCCc1ccccn1	0.3%[11.4 µM]
CC(C)CN1CCCC2(CCN(C(=O)Oc3ccccc3)CC2)C1	1.5%
O=c1c2ccccc2nc(CN2CCCCCC2)n1-c1ccc(F)cc1	?
CN1CC[C@@]2(CCCN(C(=O)c3ccncc3)C2)C1	-7.7%
C=CCn1c(O)c(C(CC)=NCCCO)c(=O)[nH]c1=O	5.6%
CCOC(=O)c1c(C)n(Cc2ccccc2)c2ccc(OCC(O)CN3C(=O)CNC3=O)cc12 (stereo not drawn)	-27.4%
CC(C)C(OC(=O)c1ccco1)C(=O)NCc1ccco1 (stereo not drawn)	?
CN1[C@@H]2CC[C@H]1CC(OC(c1ccc(F)cc1)c1ccc(F)cc1)C2 (stereo partly drawn)	7.4%
CC([C@H](O)c1ccccc1)N(C)C (stereo partly drawn)	3.2%
Cc1cccc2c3c(ccc12)C1=C(C(=O)C3=O)C(C)CO1 (stereo not drawn)	20µM*
O=C(NC1CC1)C1CSC(c2cccnc2)=N1 (stereo not drawn)	3.0%
COC(=O)[C@H]1C(=O)c2ccccc2O[C@@](C(=O)OC)(c2ccccc2)[C@@H]1c1ccccc1	0.8%[11.4 µM]
C[C@@]12CC[C@H]3[C@@H](CC[C@@H]4C[C@H]5S[C@H]5C[C@]43C)[C@H]1CC[C@H]2O	24.5%[25.6 µM]
ClC(Cl)=C(Cl)Cl	5.6%&0.8%
C=CCN1C[C@H](C)N([C@H](c2ccc(C(=O)N(CC)CC)cc2)c2cccc(O)c2)C[C@H]1C	16.7%
Oc1ccc2c3c1O[C@H]1[C@@H](O)CC[C@]4(O)[C@H](C2)N(CC2CCC2)CC[C@@]314	9.1%[25.6 µM]
O=C(Cc1ccccc1)Oc1ccccc1N1C(=O)CCC1=O	-3.4%
CN1CCN(C(=O)Cc2nc3ccccc3[nH]2)CC1	-5.0%
CN(C)[C@@H]1C(=O)C(C(N)=O)=C(O)[C@]2(O)C(=O)C3=C(O)c4c(O)cccc4[C@@](C)(O)[C@H]3[C@H](O)[C@@H]12	12.6µM*
CCOP(=O)(C#CC(C)(C)C)C(O)(c1ccccc1)C(F)(F)F (stereo not drawn)	0.2%
COc1ccc(C(c2ccc(OC)cc2)C(Cl)(Cl)Cl)cc1	-0.9%&0.4%
CC(=O)O[C@H]1CC[C@@]2(C)[C@@H](CC[C@H]3[C@H]2CC(=O)[C@]2(C)[C@@H]3C[C@@H](N3CC3)[C@H]2C(C)=O)C1	7.6%[11.4 µM]
CC(C(N)=O)N1CC(c2ccc(Cl)cc2)CC1=O (stereo not drawn)	0.8%
CS(=O)(=O)Nc1ccc(Cc2noc(-c3ccc4[nH]cc(CCN)c4c3)n2)cc1	-10.7%
Nc1ccccc1N=Cc1c(O)n(CCC2=CCCCC2)c(=O)[nH]c1=O	-7.7%
CC(=O)Nc1ccccc1OC(=O)N(C)C	13.5%
Cc1cccc(NC(=O)CSc2nnc([C@@H](N)Cc3c[nH]c4ccccc34)o2)c1C	-2.2%
CN(C(=O)Oc1cccc2cccnc12)c1ccccc1	8.7%
CCCC1(CCC)C(=O)NC(=NCc2ccccc2)NC1=O	4.0%
O=C(CCn1c(=O)oc2ccccc21)N1CCC2(CC1)OCCO2	6.5%
COc1ccc(NC(=O)N2CC[C@@]3(CCCN(C(=O)Oc4ccccc4)C3)C2)cc1	-3.0%
COc1ccc(C(=O)O[C@H]2CC[C@@]3(C)[C@H]4CC[C@H]5[C@]3(C[C@]3(O)[C@H]6CN7C[C@H](C)CC[C@H]7[C@](C)(O)[C@]6(O)[C@H](O)C[C@]53O)O[C@]24O)cc1OC	10.9%[11.4 µM]
S=C(S)N1CCCC1	25.1µM*
CC(O)CCl (stereo not drawn)	-2.0%
FC(F)(F)/C(=N\P(=S)(N1CCOCC1)N1CCOCC1)N1CCOCC1	-4.4%
CC12CN3CC(c4ccccc4)(CN(C1)C31CCCCC1)C2=O	-8.2%
O=C(Nc1cccnc1)c1c(O)c2c(n(Cc3ccccc3)c1=O)CCCC2	-2.9%
Cc1cccnc1-n1c(CN2C(=O)c3ccccc3C2=O)nc2ccccc2c1=O	6.6%
CC1=CC(=O)C2=C(C)CC(O)C3C(C)C(=O)OC3C12 (stereo not drawn)	2.6%
CCCC(C)n1[nH]c(=O)c2c1NC(=O)CSC2c1ccc(OC)c(OC)c1 (stereo not drawn)	-3.7%
CN(C)C(=O)Oc1ccc(OC(=O)N(C)C)cc1	5.7%
NCC[Se][Se]CCN	0.794µM*
O=C1C2CCCN2C(c2cccnc2)N1c1cccc(Cl)c1 (stereo not drawn)	4.6%
CCCCn1c(O)c(C(CC)=Nc2ccc(OCC)cc2)c(=O)[nH]c1=O	-0.6%
NC1CCC(CC2CCC(N)CC2)CC1 (stereo not drawn)	-2.2%
COc1cccc(OC)c1C1=NCC(=O)Nc2c1oc1ccc(Br)cc21	-21.2%
